Ba CapD inh: CapD enzyme inhibition; purified CapD enzyme, fluorescence intensity read-out; stronger effect = lower value; some hits fall short of the stated cut; z-score (test concentration not listed); actives 0.23% (n = 140,000); AID 492967;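 active = z-score under -4 in either of two replicates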;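 also: stock transfer was 100 nL into about 40 µL; score is relative to mean and spread of the plate; one replicate is shown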
AID504770: growth inhibitors of E. coli YBA685 in a screen for V. cholerae RctB (chromosome II replication) inhibitors. E. coli YBA685 rctB-dependent plasmid, OD600 growth, 3 h; stronger effect = lower value. z-score (no concentration beside the values). actives 0.27% (n = 130,000). AID 504770;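 active = z-score under -2 on both plates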;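 also: wells of about 30 µL received 100 nL stock; score is relative to mean and SD of the test wells; the first replicate is given; strong numbers were not always called active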
* = called active by the depositor; x = no result given. An unsorted share of the library; 0.39% or so of the library scored in one or more.

Each structure is followed by: AID504770	Ba CapD inh
1) CC1(C)CC(N2NC(=O)C(Cc3ccccc3)C2=O)CCS1 (stereo not given)
  -2.1	x
2) CCOc1ccc(NC(=O)CSC2=C(C#N)C(c3ccccc3OCC)C3=C(CCCC3=O)N2)cc1 (stereo not given)
  x	2.84
3) COc1ccc(-c2nc3ccccc3c(=O)n2NC(=O)c2cc(Br)ccc2Cl)cc1OC
  x	-0.185
4) COC(=O)c1ccc(N=Cc2cnc(S(=O)(=O)c3ccccc3)s2)cc1
  x	-0.6
5) CC(C)=CCCC(C)CN1CCN(c2ccc(Cl)cc2)CC1 (stereo not given)
  -0.05	0.395
6) CCOC(=O)c1c(CSc2ccccn2)n(C)c2cc(Br)c(O)cc12
  x	-0.66
7) CN(C(=O)c1oc(=O)c2ccccc2c1-c1ccccc1)c1ccccc1
  -0.65	-3.17
8) COC(=O)c1cc(-c2cc(OC)c(OC)c(OC)c2)no1
  2.45	x
9) FC(F)(F)c1nc2ccc(Cl)cc2[nH]1
  -1.45	7.08
10) O=C(/C=C/c1ccccc1)NCCN1CCOCC1
  -0.15	0.365
11) COc1ccc(CCNC(=O)C2C3C=CC(C3)C2C(=O)O)cc1OC (stereo not given)
  -1.25	-0.425
12) O=C(CSc1nccc(=O)[nH]1)C12CC3CC(CC(C3)C1)C2
  -0.3	x
13) CCC(C)(C)C1CCC2(CC1)NC(=S)N(c1cccc(C)c1C)N2 (stereo not given)
  x	-0.08
14) Cc1onc(-c2ccccc2)c1C1=N/C(=C\c2cc(Br)cs2)C(=O)O1
  x	-0.8
15) C/C(=N\OC(=O)Nc1ccc(Cl)cc1)c1cc(-c2ccccc2)no1
  0.35	-1.03
16) CC(C)(C)NC(=O)Cn1c(SCC(=O)c2ccc3c(c2)OCCO3)nc2ccccc21
  0.2	x
17) CCC(=O)N1CCc2cc(S(=O)(=O)NC(C(=O)NCc3ccco3)C(C)C)ccc21 (stereo not given)
  -0.15	-0.215
18) c1ccc2cc3sccc3cc2c1
  x	3.11
19) Cc1ccccc1C(=O)NC(=S)N1CC(C)OC(C)C1 (stereo not given)
  -0.9	0.22
20) COc1ccccc1-c1nn(CN(c2ccccc2)c2ccccc2)c(=S)o1
  0.1	7.87
21) COc1cc(C)nc(N(C)S(=O)(=O)c2ccccc2)n1
  0.25	x
22) O=C(CCN1C(=O)c2ccccc2C1=O)N1CCC(c2ccccc2)C1 (stereo not given)
  -0.1	-0.525
23) COc1ccccc1N1CCN(C(=O)c2cc3n(n2)C(C(F)(F)F)CC(c2ccc(Cl)cc2)N3)CC1 (stereo not given)
  x	-0.215
24) O=C1c2ccccc2C(=O)N1CCSc1n[nH]c(-c2ccccc2F)n1
  -0.05	x
25) Cc1nc2sccn2c(=O)c1Br
  x	0.17
26) Cc1cc(NC(=O)CSc2nc3c(c(=O)n2-c2ccc(Br)cc2)SCC3)no1
  x	-1.87
27) O=C(NC(=O)N1CCCc2ccccc21)c1ccccc1
  -0.45	x
28) O=[N+]([O-])c1ccc(Oc2ccc(Cl)cc2)cc1
  x	-0.31
29) CC(C)c1nnc(SCC(=O)NC(C)(C)C)n1C
  -0.5	x
30) CC(C)(C)n1ncc2c(=O)n(CC(=O)N3CCCC3)cnc21
  -1.35	x

Additional entries follow.
Each structure is followed by: AID504770	Ba CapD inh
31) O=C(CSc1ncccn1)N1CCCc2ccccc21
  0.05	0.09
32) N#Cc1cc2c(nc1SC1CCc3ccccc3C1=O)CCCC2 (stereo not given)
  -0.45	2.79
33) CC1=NNC(=O)/C1=C/c1ccc(-c2ccc(Cl)cc2)o1
  0.1	x
34) Cc1cc([N+](=O)[O-])cc([N+](=O)[O-])c1Sc1ccc(Cl)cc1
  x	-0.205
35) COc1cccc(NS(=O)(=O)c2cc(C(=O)N3CCN(C)CC3)ccc2NCc2ccccc2Cl)c1
  x	1.42
36) COc1cc(/C=N/NC(=O)/C=C/c2ccc3c(c2)OCO3)ccc1OCc1ccccc1
  x	1.79
37) O=C1c2ccccc2C(=O)N1CN1CCN(Cc2ccc3c(c2)OCO3)CC1
  -0.4	0.265
38) CC(Sc1nnc(C2CCCCC2)n1-c1cccc(Cl)c1)C(=O)O (stereo not given)
  1.05	x
39) Clc1ccccc1OCCBr
  -0.2	-0.485
40) O=C(CSc1ccc2ccccc2n1)NCCCN1CCCC1=O
  1.05	x
41) O=C(NC1CCCC1)c1ccc(CSc2nc3ccncc3[nH]2)cc1
  0.2	0.765
42) Cc1nc(N2CCN(c3ccccn3)CC2)c2c(C)c(C(=O)NCc3ccc(F)cc3)sc2n1
  x	-1.24
43) O=C(Cn1ncc(Cl)c(Cl)c1=O)N1CCOCC1
  0.15	x
44) NCCc1nc2ccccc2s1
  -0.2	x
45) COc1cc(OC)nc(-c2cc(Cl)nc(Cl)c2)n1
  x	-0.595
46) C=CCN1C(=O)CS/C1=C(\C#N)S(=O)(=O)c1ccc(C)cc1
  -2.85*	-1.57
47) NC(=O)COC(=O)c1sc2cc(F)ccc2c1Cl
  -0.95	x
48) COc1cc(-n2c(C)nc3cc(C(=O)N4CCc5ccccc54)ccc32)cc(OC)c1OC
  x	-0.33
49) CSc1cccc(-n2cc(-c3ccc4c(c3)OCO4)[nH]c2=O)c1
  0.55	0.53
50) COC(=O)CCC(=O)Nc1sc2c(c1C(=O)OC)CCCC2
  0.65	3.81
51) CCOC(=O)N1CCN(S(=O)(=O)c2ccc(C(=O)Nc3nc4ccc(OCC)cc4s3)cc2)CC1
  x	-1.47
52) COC(=O)CC(c1ccc(C#N)cc1)n1c(C)ccc1C (stereo not given)
  -1.2	-0.535
53) CCNc1oc(COc2ccc(OC)cc2)nc1C#N
  0.5	0.71
54) O=C(NCc1ccccc1)C1CCC(C(=O)NCc2ccccc2)N1 (stereo not given)
  -0.55	0.865
55) O=C(NC1CCN(Cc2c(F)cccc2Cl)C1)OCC1CCCC1 (stereo not given)
  x	-0.395
56) O=C(Nc1ccccc1C1CC1)c1cccs1
  1.05	x
57) CC12c3ccccc3C(c3ccccc31)C1C(=O)N(c3cc([N+](=O)[O-])ccc3Cl)C(=O)C12 (stereo not given)
  x	-0.235
58) CC(=O)Nc1cccc(O)c1
  -0.25	x
59) Cc1cc(C(=O)NNC(=O)c2cc3cc(Br)ccc3[nH]2)n[nH]1
  x	0.4
60) CCc1ccc(Nc2nnc(SCC(=O)NC(=O)CN3CCCC3=O)s2)cc1
  -0.7	x

3 entries from above, with bars between the fields.
item | molecule | AID504770 | Ba CapD inh
52 | COC(=O)CC(c1ccc(C#N)cc1)n1c(C)ccc1C (stereo not given) | -1.2 | -0.535
53 | CCNc1oc(COc2ccc(OC)cc2)nc1C#N | 0.5 | 0.71
54 | O=C(NCc1ccccc1)C1CCC(C(=O)NCc2ccccc2)N1 (stereo not given) | -0.55 | 0.865

Additional results:
Each structure is followed by: AID504770	Ba CapD inh
61) CO/N=C(/C(=O)N[C@@H]1C(=O)N2C(C(=O)O)=C(COC(C)=O)CS[C@H]12)c1csc(N)n1
  -3.15*	0.24
62) CN(C(=O)c1cc(=O)c2ccccc2o1)C1(c2ccccc2Cl)CCCCC1=O (stereo not given)
  0.35	0.4
63) O=C(Nc1ccc(-c2nc3ccccc3s2)cc1)Nc1cc(F)cc2c1OCOC2
  -0.15	82.4
64) CC(C)(CNCC(O)c1ccccc1)N1CCOCC1 (stereo not given)
  -0.65	x
65) CCOC(=O)COc1ccc2c(=O)c(-c3ccc4c(c3)OCCO4)c(C(F)(F)F)oc2c1
  x	-0.235
66) Cc1cc2c(cc1S(=O)(=O)CCC(=O)NCc1ccco1)OCC(=O)N2
  1.15	-0.21
67) Nc1nc(N2CCOCC2)ncc1S(=O)(=O)c1ccc(Cl)cc1
  -0.5	2.75
68) CNc1nc2c(c(=O)[nH]c(=O)n2C)n1Cc1cccc2ccccc12
  -0.1	x
69) N#CCC(=O)Nc1ccc2c(c1)OCCO2
  0.2	0.465
70) COc1ccc(-c2noc(=O)n2CC(=O)Nc2ccccc2C)cc1
  -1.2	0.125
71) COc1cccc(NC(=O)c2c(OC)cccc2OC)c1
  -0.5	0.57
72) Cc1ccc(-c2ccc(OC(=O)c3ccccc3F)cc2)cc1
  0.6	-0.335
73) CC1=Nc2cc(C(=O)NCc3ccco3)ccc2Sc2ccc(Cl)cc21
  0.55	-0.39
74) Cc1[nH]c2ccccc2c1C(=O)C(C)OC(=O)c1ccccc1-n1cnnn1 (stereo not given)
  0.3	x
75) CCOc1ccccc1CCC(=O)O
  0	0.775
76) Cc1cc(S(=O)(=O)N2CCCC2)ccc1-n1cnnn1
  1.35	x
77) FC(F)(F)c1cc(-c2nn[nH]n2)cc(C(F)(F)F)c1
  x	0.445
78) COc1cccc(NS(=O)(=O)c2cc(C(=O)N3CCN(C)CC3)ccc2NCc2ccc(F)cc2)c1
  x	0.73
79) CCc1nc(C)cn1S(=O)(=O)c1cc(Br)c(C)cc1OC
  1.1	-0.62
80) C=CCOc1ccc(C2c3c(oc4ccc(F)cc4c3=O)C(=O)N2CCOC)cc1 (stereo not given)
  0.25	-0.015
81) CC(=O)Nc1ccccc1OCC(=O)N(C)Cc1ccco1
  -0.05	x
82) O=C(OCC(=O)N1CCCCC1)c1ccc(OC(F)(F)F)cc1
  -1	0.135
83) CC(=O)Nc1ccc(S(=O)(=O)NNc2ncnc3sccc23)cc1
  0.15	0.29
84) CCOC(=O)COc1nc(C)cc(C(F)(F)F)c1C#N
  x	77.4
85) COc1ccc(C(=O)N/N=C/c2cccnc2)cc1
  x	0.01
86) O=c1c(Cl)c(N2CCCC2c2ccc3c(c2)OCCO3)cnn1-c1nc2ccccc2[nH]1 (stereo not given)
  0.25	x
87) COc1cccc(N2C(=O)/C(=C/c3cc(OC)c(OC)c(OC)c3)C(=O)NC2=S)c1
  x	0.34
88) COc1ccc(OCCOc2ccc(C)cc2OC)cc1
  0.45	0.24
89) CC(=NCC(c1ccco1)N1CCCCC1)C1=C(O)CC2(CCCCC2)CC1=O (stereo not given)
  -0.8	x
90) COc1ccccc1N(CCOC(=O)c1ccccc1)S(=O)(=O)c1ccc(NC2=NS(=O)(=O)c3ccccc32)cc1
  x	-0.62

Carrying on.
Each structure is followed by: AID504770	Ba CapD inh
91) Cc1nn(C(=O)c2ccc(C(C)(C)C)cc2)c(N)c1-c1ccccc1
  -0.4	0.32
92) O=C1Nc2ccccc2/C1=C/c1cccc(Cl)c1
  0	-1.13
93) O=C(NC1CCCCC1)C(Cc1ccccc1)n1cccc1 (stereo not given)
  2	-0.63
94) O=c1cc(C(F)(F)F)[nH]c2ccc(C(F)(F)F)cc12
  x	79.2
95) CCOC(=O)/C(=C\c1ccc(OCC(=O)O)cc1)C1=Nn2c(nnc2C2CCCCC2)SC1
  -0.9	x
96) O=C(COc1ccc(-c2ccccc2)cc1)Nc1ncccn1
  -0.1	-0.89
97) COc1cccc(C2CC(c3cccs3)=NN2C(=O)CSC2CCCCC2)c1OC (stereo not given)
  0.15	3.23
98) O=C(CSc1ncccc1C(=O)Nc1ccc2c(c1)OCCO2)Nc1ccc2c(c1)OCO2
  -0.15	x
99) O=C(N/N=C/c1ccccn1)c1ccccc1NS(=O)(=O)c1cccs1
  0.9	x
100) Cc1ccc(-n2nc(C)c3cc(C#N)c4nc5ccccc5n4c32)cc1
  0.35	x
101) CC(C)(C)c1ccc(C(=O)N(Cc2ccco2)C2CCS(=O)(=O)C2)cc1 (stereo not given)
  0.5	0.52
102) O=C(COc1ccccc1)OCC(=O)c1cccc(C(F)(F)F)c1
  1.2	0.335
103) CC(=O)Nc1c(O)nc(SCC(=O)NC(C)c2ccccc2)n(-c2ccccc2)c1=O (stereo not given)
  -1.3	-0.825
104) COC(=O)C1=CNC=C(C(=O)OC)C1c1ccc(C(=O)OC)cc1
  -1.65	100
105) Cc1ccc(C(=O)CSCC(=O)Nc2ccccc2)s1
  0.5	-0.4
106) Cc1nc2ccccc2c2nc(NC(=O)c3ccc4nsnc4c3)nn12
  0.05	0.15
107) O=c1c(O)c(-c2ccccc2O)[nH]c2ccccc12
  -2.35	x
108) Cc1cc(C=C2C(=O)CCCC2=O)c(C)n1-c1ccccc1
  -0.05	-0.495
109) O=C(Nc1cc(Cl)cc(Cl)c1)C(Sc1cccc[n+]1[O-])c1ccccc1 (stereo not given)
  -0.45	-0.925
110) Cc1cc(NS(=O)(=O)c2ccc(NC(=O)c3ccncc3)cc2)nc(C)n1
  -0.35	-0.125
111) COC(=O)c1ccc(Oc2nc(SC)nc(N(C)C)n2)cc1
  x	-0.235
112) COc1c(C)cc(S(=O)(=O)N2CCN(c3ccc(F)cc3)CC2)c(C)c1C
  -0.3	-0.765
113) CCOC(=O)c1nnn2c1nc(Sc1nc3ccccc3[nH]1)c1ccccc12
  -0.55	-0.32
114) CCOC(=O)Cn1c(=NC(=O)C2COc3ccccc3O2)sc2cc(NC(C)=O)ccc21 (stereo not given)
  1.45	x
115) CC(C)(C)c1nc2ccccc2[nH]1
  -0.95	0.11
116) CCN1CCCC1CNC(=O)c1noc2c1COc1ccc(C)cc1-2 (stereo not given)
  -0.7	1.33
117) COC(=O)c1cc(CSc2nnc(-c3ccccc3)c(-c3ccccc3)n2)oc1C
  -0.15	x
118) CC(C)Cn1c(O)c(N=NC(=S)NC(C)C)c2ccccc21
  0.55	x
119) CC(C)(C)c1csc(-c2ccc(-c3cccs3)s2)n1
  0.9	59
120) CNC1(c2ccc(OC)cc2)Oc2ccccc2C(C#Cc2ccccc2)=C1C (stereo not given)
  x	-0.475
121) Cc1ccc(NC(=O)Nc2cc3c(cc2N2CCCC2)n(C)c(=O)n3C)cc1C
  0.25	3.67
122) O=C(NCc1ccc2c(c1)OCO2)c1cc2ccccc2s1
  -1.3	-0.575

A second format for some results above:
14: Cc1onc(-c2ccccc2)c1C1=N/C(=C\c2cc(Br)cs2)C(=O)O1
  AID504770: x	Ba CapD inh: -0.8

100: Cc1ccc(-n2nc(C)c3cc(C#N)c4nc5ccccc5n4c32)cc1
  AID504770: 0.35	Ba CapD inh: x

39: Clc1ccccc1OCCBr
  AID504770: -0.2	Ba CapD inh: -0.485

81: CC(=O)Nc1ccccc1OCC(=O)N(C)Cc1ccco1
  AID504770: -0.05	Ba CapD inh: x

Assay outcomes (PubChem BioAssay)
